FEN1 inhibitor = qHTS Assay for the Inhibitors of Human Flap endonuclease 1 (FEN1); P39748; Recombinant FEN1 flap cleavage, fluorescence, 15 min; Potency, µM (top dose mostly 114 µM), inactives show at the highest dose activity change, negative = inhibition, hits mostly inhibitors; actives 0.35% (n = 390,000); further: nearly all actives have a fitted effect of over 65% in size
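Enzyme 10 nM, 15 min RT preincubation with compound; start with substrate 50 nM final; reads at 0 and 15 min; qHTS titration, four-parameter Hill fit.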
GCN5L2 inh = qHTS Assay for Inhibitors of GCN5L2; GCN5L2 HAT assay, ThioGlo1 CoA-SH fluorescence; Potency, µM (doses to about 58.9 µM), without a hit: at the highest dose activity change, negative = inhibition, most hits filed as inhibitors; actives 0.21% (n = 390,000); AID 504327, 2011
Target sequence (Q92830 whole entry, looked up): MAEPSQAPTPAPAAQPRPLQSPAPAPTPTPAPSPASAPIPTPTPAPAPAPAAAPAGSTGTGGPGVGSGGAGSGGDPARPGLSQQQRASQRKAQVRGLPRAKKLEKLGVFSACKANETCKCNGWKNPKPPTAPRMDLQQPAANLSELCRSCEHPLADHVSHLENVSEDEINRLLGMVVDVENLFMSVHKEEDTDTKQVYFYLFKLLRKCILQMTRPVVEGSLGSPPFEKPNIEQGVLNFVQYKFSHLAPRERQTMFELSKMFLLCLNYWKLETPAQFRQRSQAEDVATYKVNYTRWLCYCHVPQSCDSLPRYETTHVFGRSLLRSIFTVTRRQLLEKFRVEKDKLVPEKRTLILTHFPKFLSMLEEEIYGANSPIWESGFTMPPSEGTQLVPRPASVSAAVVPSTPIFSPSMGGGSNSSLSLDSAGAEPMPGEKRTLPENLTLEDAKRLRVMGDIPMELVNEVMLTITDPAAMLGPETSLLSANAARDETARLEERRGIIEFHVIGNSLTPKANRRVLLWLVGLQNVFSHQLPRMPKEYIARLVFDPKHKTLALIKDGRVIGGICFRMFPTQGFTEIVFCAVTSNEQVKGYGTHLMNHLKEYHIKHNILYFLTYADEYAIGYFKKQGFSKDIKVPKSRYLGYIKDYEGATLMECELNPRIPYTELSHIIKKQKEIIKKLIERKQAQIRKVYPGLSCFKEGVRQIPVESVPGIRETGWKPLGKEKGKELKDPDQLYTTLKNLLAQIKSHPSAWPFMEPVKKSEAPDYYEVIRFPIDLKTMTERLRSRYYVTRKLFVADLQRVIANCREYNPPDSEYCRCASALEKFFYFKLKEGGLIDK
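GCN5L2 (20 nM) in 50mM HEPES pH 7.5, 0.1mM EDTA, 0.01% Tween-20 preincubated 15 min with compounds at room temperature. Reaction started with H3(1-25) 75uM, acetyl-CoA 70uM, ThioGlo1 50uM; CoA-thiol fluorescence (Ex340/Em540) read at 0 and 20 min.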
* hit, by the source's call; [ ] = another dose, or the depositor's remark. The call rests on the fitted dose curve; in most records, active means well fitted curve in the direction sought with a large enough effect; inconclusive means small, poorly fitted or top-dose-only effect, or another doubt; inactive means no such curve, though single readings can be large; an effect the other way counts as inactive or inconclusive. On the % scale 0 is the no-effect control and ±100 the full control effect; potency means the concentration at half of the fitted maximal effect.

COC(=O)c1ccc(Cn2cc(C(F)(F)F)cc([N+](=O)[O-])c2=O)cc1 was read as FEN1 inhibitor 5% and GCN5L2 inh -4%.
CCOc1ccc(C(=O)c2cn(CC(=O)Nc3ccc4c(c3)OCCO4)c3ccc(F)cc3c2=O)cc1 was read as FEN1 inhibitor -11% and GCN5L2 inh -1%.
Screening COc1ccc(C(=O)NCCc2ccccc2)cc1[N+](=O)[O-] returned FEN1 inhibitor 2% and GCN5L2 inh -19%.
For O=C(NCc1ccccc1)C1CC(=O)N(C2CCCCC2)C1 (configuration not stated) the results were FEN1 inhibitor 1% and GCN5L2 inh -4%.
COc1cc2ccccc2cc1C(=O)Nc1ccc2oc(-c3ccc(F)cc3)nc2c1 was read as FEN1 inhibitor -3% and GCN5L2 inh -3%.
For CN(c1ccccc1)S(=O)(=O)c1ccc(-c2ccccc2)cc1 the results were FEN1 inhibitor -19% and GCN5L2 inh -5%.
For O=c1[nH]c(=O)n(Cc2ccccc2)c2nc(-c3cccs3)n(CCO)c12 the results were FEN1 inhibitor -15% and GCN5L2 inh -1%.
For COc1ccccc1Nc1nc(-c2sc(NC(=O)C(C)(C)C)nc2C)cs1 the results were FEN1 inhibitor -1% and GCN5L2 inh -11%.
Screening O=C1CCC(C(=O)N2CCOCC2)CN1Cc1cccc(C(F)(F)F)c1 (configuration not stated) returned FEN1 inhibitor -6% and GCN5L2 inh 0%.
Cn1c(=O)cc(SCC(=O)NCCC2=CCCCC2)c2cc(Cl)ccc21 was read as FEN1 inhibitor 0% and GCN5L2 inh -1%.
`CCCCNC(=O)OC1CCS(=O)(=O)C1` (configuration not stated) gave FEN1 inhibitor -8% and GCN5L2 inh -2%.
`NC(=O)Nc1ccccc1C(=O)NCCc1ccccc1` gave FEN1 inhibitor 14% and GCN5L2 inh -2%.
Screening Cc1c(Cl)cccc1NC(=O)c1cc(-c2ccc3c(c2)OCO3)on1 returned FEN1 inhibitor 2% and GCN5L2 inh 2%.
Screening Cn1c(CCNC(=O)c2ccc(F)cc2)nc2ccccc21 returned FEN1 inhibitor 0% and GCN5L2 inh -5%.
Screening O=C(NCCCCc1ccccc1)C1CC(c2ccc(C(F)(F)F)cc2)=NO1 (configuration not stated) returned FEN1 inhibitor -17% and GCN5L2 inh 13%.
Screening CCOc1ncccc1C(=O)Nc1ncc(C)s1 returned FEN1 inhibitor -4% and GCN5L2 inh -2%.
For Cc1cc(/C=C2\SC(=S)N(Cc3ccco3)C2=O)c(C)n1-c1cccnc1 the results were FEN1 inhibitor -2% and GCN5L2 inh 28%.
Screening Cc1nn(-c2ccccc2)c(C)c1C(=O)Nc1ccc(N2CCOCC2)cc1 returned FEN1 inhibitor -4% and GCN5L2 inh -3%.
Screening Cc1nn(C)cc1CNC(=O)COc1ccc(Cl)cc1Cl returned FEN1 inhibitor -1% and GCN5L2 inh 0%.
Screening COc1ccc(C(C)=O)cc1Cn1nc(C)c([N+](=O)[O-])c1C returned FEN1 inhibitor 1% and GCN5L2 inh -2%.
Screening O=C(c1cccs1)N1CCN=C1SCc1cccnc1 returned FEN1 inhibitor 9% and GCN5L2 inh -1%.
For CC(C)n1nnc2ccccc2c1=O the results were FEN1 inhibitor 6% and GCN5L2 inh 0%.
COc1cccc(-c2nc(CS(=O)(=O)CC(=O)NCCCOC(C)C)c(C)o2)c1 was read as FEN1 inhibitor -15% and GCN5L2 inh -3%.
For CCCn1c(=S)[nH]c2cc(Cl)ccc21 the results were FEN1 inhibitor -7% and GCN5L2 inh inconclusive.
Screening Cc1ccc(C(=O)N(c2ccccn2)C(C)c2ccco2)cc1C (configuration not stated) returned FEN1 inhibitor 6% and GCN5L2 inh 0%.
For Cc1nnc(SCC(=O)N2c3ccccc3C(C)(c3ccc(Cl)cc3)CC2(C)C)s1 (configuration not stated) the results were FEN1 inhibitor -5% and GCN5L2 inh -5%.
For CCCCn1c(CN2CCN(CCO)CC2)nc2ccccc21 the results were FEN1 inhibitor -2% and GCN5L2 inh -4%.
Screening CC1(C)Cc2c(cnn2-c2cccc(F)c2)C(NC(=O)C2CCOCC2)C1 (configuration not stated) returned FEN1 inhibitor 1% and GCN5L2 inh -4%.
`COc1ccc(Oc2cnc3ccccc3n2)cc1` gave FEN1 inhibitor 2% and GCN5L2 inh -3%.
Screening CCc1nnc2c(N(C)S(=O)(=O)c3ccc(C)cc3)nc3ccccc3n12 returned FEN1 inhibitor 16% and GCN5L2 inh 1%.
For CCOc1ccc(CCNC(=O)C2CCCN(c3nn4c(=O)cc(C)nc4s3)C2)cc1 (configuration not stated) the results were FEN1 inhibitor 1% and GCN5L2 inh -13%.
`O=C(CCc1ccccc1)Nc1cc(Cl)ccc1O` gave FEN1 inhibitor 2% and GCN5L2 inh -3%.
For CC(=O)NC(Cc1cccc(F)c1)C(=O)NC1CCN(C(=O)c2ccc(C)cc2)CC1 (configuration not stated) the results were FEN1 inhibitor -10% and GCN5L2 inh inconclusive.
For O=C(NCCC1CCCCN1S(=O)(=O)c1ccc(F)cc1)C(=O)NCC1CCCO1 (configuration not stated) the results were FEN1 inhibitor -2% and GCN5L2 inh -7%.
`Cc1ccc(CNC(=O)COc2ccc(S(=O)(=O)N3CCCC3)cc2)cc1` gave FEN1 inhibitor 5% and GCN5L2 inh -2%.
For CC(NC(=O)Cc1cccc(C(F)(F)F)c1)c1ccc(F)cc1 (configuration not stated) the results were FEN1 inhibitor -9% and GCN5L2 inh -11%.
Screening COc1ccc(C(=O)N[C@H](C(=O)Nc2nc3ccccc3[nH]2)C(C)C)cc1 returned FEN1 inhibitor 2% and GCN5L2 inh -3%.
COc1ccc(S(=O)(=O)NCCC(=O)NCc2ccc(F)cc2)cc1 was read as FEN1 inhibitor -3% and GCN5L2 inh 3%.
`Brc1ccc(-c2nnc3sc(CN4CCC5(CC4)OCCO5)cn23)cc1` gave FEN1 inhibitor 7% and GCN5L2 inh -10%.
`Cn1ncc(Cl)c1C(=O)Nc1ccc(Cl)cn1` gave FEN1 inhibitor 10% and GCN5L2 inh 3%.

Of the compounds above, two contain a furan ring, fused or not:
For Cc1cc(/C=C2\SC(=S)N(Cc3ccco3)C2=O)c(C)n1-c1cccnc1 the results were FEN1 inhibitor -2% and GCN5L2 inh 28%.
Screening Cc1ccc(C(=O)N(c2ccccn2)C(C)c2ccco2)cc1C (configuration not stated) returned FEN1 inhibitor 6% and GCN5L2 inh 0%.

More compounds
Cc1cc(C(=O)CN2C(=O)c3ccccc3S2(=O)=O)c(C)n1CC1CCCO1 (configuration not stated) was read as FEN1 inhibitor -13% and GCN5L2 inh -15%.
Screening CCC1CCCCN1CCCNC(=O)Cn1ncn2nc(-c3ccc(OC)cc3)cc2c1=O (configuration not stated) returned FEN1 inhibitor 9% and GCN5L2 inh -7%.
`O=C(CN1C(=O)C2C3C=CC(C3)C2C1=O)NCc1ccccc1` (configuration not stated) gave FEN1 inhibitor 5% and GCN5L2 inh 1%.
For CCN1C(=O)C(=O)N(CC(=O)N2CCN(c3ccccc3)CC2)C1=O the results were FEN1 inhibitor 0% and GCN5L2 inh -11%.
For O=C(NC(=S)NC1CCS(=O)(=O)C1)c1ccccc1Br (configuration not stated) the results were FEN1 inhibitor 17% and GCN5L2 inh 1%.
Screening CCCCc1nc2cc(C(=O)N3CCCCC3CCO)ccc2o1 (configuration not stated) returned FEN1 inhibitor 4% and GCN5L2 inh -1%.
`CCCCNC(=O)c1cc(C)no1` gave FEN1 inhibitor -12% and GCN5L2 inh -1%.
`CC(Sc1nnnn1C1CC1)C(=O)Nc1cccc(S(=O)(=O)N2CCOCC2)c1` (configuration not stated) gave FEN1 inhibitor 0% and GCN5L2 inh -12%.
Screening CN(C)S(=O)(=O)c1ccc(C(=O)OCC(=O)NC(=O)NC2CCCC2)cc1 returned FEN1 inhibitor 14% and GCN5L2 inh -4%.
For O=S(=O)(CCc1ccncc1)C1Cc2cccc3cccc1c23 (configuration not stated) the results were FEN1 inhibitor 10% and GCN5L2 inh -5%.
For CCOC(=O)c1cnc(-n2cc(C)cn2)nc1NCc1ccc2c(c1)OCO2 the results were FEN1 inhibitor 0% and GCN5L2 inh -21%.
`O=C(NCCc1ccc(Cl)cc1)c1ccc2[nH]c(=O)c(=O)[nH]c2c1` gave FEN1 inhibitor -15% and GCN5L2 inh -4%.
CCN(CCNC(=O)C1=C(C)C(=O)OC12CCC(C)CC2)c1ccccc1 (configuration not stated) was read as FEN1 inhibitor -7% and GCN5L2 inh inconclusive.
`CC(=O)c1c(C)[nH]c(C(=O)Nc2nc(C)cs2)c1C` gave FEN1 inhibitor 14% and GCN5L2 inh -10%.
Screening O=C(O)CCCNC(=O)/C(=C\c1ccccc1F)NC(=O)c1ccccc1 returned FEN1 inhibitor -2% and GCN5L2 inh 10%.
For CC1CN(S(=O)(=O)c2ccc(C(=O)Nc3nc(-c4cc5ccccc5o4)cs3)cc2)CC(C)O1 (configuration not stated) the results were FEN1 inhibitor -5% and GCN5L2 inh -3%.
CCC(C)c1ccc(NC(=O)Nc2cnccn2)cc1 (configuration not stated) was read as FEN1 inhibitor 9% and GCN5L2 inh -8%.
Screening NC(=O)c1ccccc1NC(=O)N1CCOCC1 returned FEN1 inhibitor -4% and GCN5L2 inh -1%.
Screening O=C(N/N=C/c1ccc2c(c1)OCO2)C(O)c1ccccc1 (configuration not stated) returned FEN1 inhibitor 12% and GCN5L2 inh 2%.
Cc1onc(C(=O)NCc2ccc(F)cc2)c1[N+](=O)[O-] was read as FEN1 inhibitor 14% and GCN5L2 inh -6%.

Taken from the entries so far (2 entries):
`O=C(CN1C(=O)C2C3C=CC(C3)C2C1=O)NCc1ccccc1` (configuration not stated) gave FEN1 inhibitor 5% and GCN5L2 inh 1%.
For CCN1C(=O)C(=O)N(CC(=O)N2CCN(c3ccccc3)CC2)C1=O the results were FEN1 inhibitor 0% and GCN5L2 inh -11%.

Five compounds from above, sorted by length of the SMILES, highest first:
Screening CCC1CCCCN1CCCNC(=O)Cn1ncn2nc(-c3ccc(OC)cc3)cc2c1=O (configuration not stated) returned FEN1 inhibitor 9% and GCN5L2 inh -7%.
`O=C(NCCc1ccc(Cl)cc1)c1ccc2[nH]c(=O)c(=O)[nH]c2c1` gave FEN1 inhibitor -15% and GCN5L2 inh -4%.
Screening O=C(O)CCCNC(=O)/C(=C\c1ccccc1F)NC(=O)c1ccccc1 returned FEN1 inhibitor -2% and GCN5L2 inh 10%.
Cc1onc(C(=O)NCc2ccc(F)cc2)c1[N+](=O)[O-] was read as FEN1 inhibitor 14% and GCN5L2 inh -6%.
Screening O=C(N/N=C/c1ccc2c(c1)OCO2)C(O)c1ccccc1 (configuration not stated) returned FEN1 inhibitor 12% and GCN5L2 inh 2%.

Remaining list, next part.
For Cc1c(NC(=O)/C(C#N)=C/c2c(N3CCCCC3)nc3ccccn3c2=O)c(=O)n(-c2ccccc2)n1C the results were FEN1 inhibitor -6% and GCN5L2 inh -2%.
COc1ccccc1-c1nc(S(=O)(=O)c2ccccc2)c(N2CCOCC2)o1 was read as FEN1 inhibitor -1% and GCN5L2 inh 2%.
Cc1nc2cc(-c3ccc(Br)cc3)[nH]n2c(=O)c1Cl was read as FEN1 inhibitor -13% and GCN5L2 inh -14%.
O=C(Nc1ccccc1)c1ccc(Br)o1 was read as FEN1 inhibitor -2% and GCN5L2 inh 14%[88.6 µM].
For N#CCCN(Cc1cccnc1)C(=O)Nc1cccc(Cl)c1 the results were FEN1 inhibitor 7% and GCN5L2 inh -1%.
Screening C=CCN=c1scc(-c2ccc3c(c2)NC(=O)CO3)n1/N=C(\C)c1ccccn1 returned FEN1 inhibitor -5% and GCN5L2 inh -6%.
For O=S(=O)(c1ccc2nc(Nc3ccc(Br)cc3F)ccc2c1)N1CCCCC1 the results were FEN1 inhibitor -13% and GCN5L2 inh -21%.
Screening Cc1onc(-c2c(Cl)cccc2Cl)c1COC(=O)c1ccc(Cl)cc1[N+](=O)[O-] returned FEN1 inhibitor -16% and GCN5L2 inh -6%.
COc1cc(S(=O)(=O)N2CCOCC2)ccc1N was read as FEN1 inhibitor 8% and GCN5L2 inh 3%.
Screening Cc1ccc(NC(=O)c2ncn(-c3ccccc3)n2)cc1Cl returned FEN1 inhibitor -8% and GCN5L2 inh -1%.
Screening COc1cc(OC)c(NC(=O)N2CC3CCCN3c3ccccc32)cc1Cl (configuration not stated) returned FEN1 inhibitor 1% and GCN5L2 inh -15%.
`O=C(NCc1cccc(Cl)c1)c1cccn1-c1nnc(N2CCCC2)s1` gave FEN1 inhibitor -5% and GCN5L2 inh 1%.
CC1CCc2c(C(=O)Oc3cccc(-n4cnnn4)c3)csc2C1 (configuration not stated) was read as FEN1 inhibitor -21% and GCN5L2 inh -10%.
Cc1ccccc1Cn1nc(C)c(NC(=O)c2cc3nc(-c4ccco4)cc(C(F)(F)F)n3n2)c1C was read as FEN1 inhibitor -13% and GCN5L2 inh -9%.
Cc1ccc(S(=O)(=O)N2CCN(C(C)C(=O)N3CCCc4ccccc43)CC2)cc1 (configuration not stated) was read as FEN1 inhibitor 6% and GCN5L2 inh -6%.
For CC(=O)Nc1ccc(NC(=O)COc2ccc(-c3ccc(C#N)cc3)cc2)cc1 the results were FEN1 inhibitor 4% and GCN5L2 inh -14%.
Screening COCCNc1nc(C)c(C(C)=O)s1 returned FEN1 inhibitor -5% and GCN5L2 inh -5%.
Cc1ccc(CNC(=O)c2ccc(N3CCC4(CC3)CC(c3ccccc3)=NO4)c(NC(=O)c3ccc(Cl)c([N+](=O)[O-])c3)c2)cc1 was read as FEN1 inhibitor 8% and GCN5L2 inh -6%.
`CC(=O)Nc1nnc(S(N)(=O)=O)s1` gave FEN1 inhibitor -13% and GCN5L2 inh -2%.

This is a subset; most or all hits stand in other tables.
